Source: PubChem (several laboratories)
Arbovirus inh – antivirals against arbovirus infection | inhibition, % at 10 µM | arbovirus infection cell-based antiviral screen | 0.37% of 200,000 active;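 active means inhibition from about 30%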;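 further: bluetongue infection of BSR cells; cell survival read as ATP light after 72 h; 0% = infected wells without compound and 100% = uninfected wells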
Mtb betalactam – beta-lactam sensitization of Mtb H37Rv | inhibition, % at 25 µM | AID 434955 | M. tuberculosis H37Rv growth with meropenem, percent inhibition; hits of this screen are not shown here | 0.27% of 330,000 active;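 active means about 74% or more and at least 40 points above the plate without the antibiotic, then above 30% in a dose series; inconclusive means first-round hits that could not be retested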;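 further: growth measured after seven days incubation then overnight dye step; 0% = bacteria only wells and 100% = bacteria with antibiotic; twin plates without the antibiotic show which effects depend on it; some results filed as inactive read as strong as hits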
Mtb growth – M. tuberculosis H37Rv growth inhibitors, H37Rv strain (AID 1626) | 0.95% of 220,000 active | one-dose inhibition, % at 10 µM; IC50 in µM for titrated hits | M. tuberculosis H37Rv growth inhibition; higher % means a stronger effect;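 active means confirmed in a dose series; inconclusive means inhibition above 80% but not taken into the dose series; inactive means below 80% or under 30% at every dose of the series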;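 further: bacteria incubated seven days before Alamar blue readout; 0% = bacteria only wells and 100% = bacteria with antibiotic wells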
YopH inh – inhibitors of Yersinia enterocolitica YopH tyrosine phosphatase | fluorescence Ex485/Em525 | inhibition, %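 (about 10 µM by stock and volumes)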 | 0.16% of 140,000 active | AID 898;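 active means inhibition of 50% or more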;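 further: controls were vehicle for no effect and minimum signal wells for full effect; inactives centre near -20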
RecA intein inh – inhibitors of M. tuberculosis RecA intein splicing; P9WHJ3; inhibition, %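 (about 9 µM by stock and volumes)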; AID 2221; cell-free RecA intein splicing, fluorescence; 0.75% of 290,000 active; in the data active means inhibition above about 30%; inconclusive means no clear call, values can overlap the other calls;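 further: 0% = vehicle wells and 100% = reference inhibitor control wells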
Target sequence (P9WHJ3 whole entry, looked up): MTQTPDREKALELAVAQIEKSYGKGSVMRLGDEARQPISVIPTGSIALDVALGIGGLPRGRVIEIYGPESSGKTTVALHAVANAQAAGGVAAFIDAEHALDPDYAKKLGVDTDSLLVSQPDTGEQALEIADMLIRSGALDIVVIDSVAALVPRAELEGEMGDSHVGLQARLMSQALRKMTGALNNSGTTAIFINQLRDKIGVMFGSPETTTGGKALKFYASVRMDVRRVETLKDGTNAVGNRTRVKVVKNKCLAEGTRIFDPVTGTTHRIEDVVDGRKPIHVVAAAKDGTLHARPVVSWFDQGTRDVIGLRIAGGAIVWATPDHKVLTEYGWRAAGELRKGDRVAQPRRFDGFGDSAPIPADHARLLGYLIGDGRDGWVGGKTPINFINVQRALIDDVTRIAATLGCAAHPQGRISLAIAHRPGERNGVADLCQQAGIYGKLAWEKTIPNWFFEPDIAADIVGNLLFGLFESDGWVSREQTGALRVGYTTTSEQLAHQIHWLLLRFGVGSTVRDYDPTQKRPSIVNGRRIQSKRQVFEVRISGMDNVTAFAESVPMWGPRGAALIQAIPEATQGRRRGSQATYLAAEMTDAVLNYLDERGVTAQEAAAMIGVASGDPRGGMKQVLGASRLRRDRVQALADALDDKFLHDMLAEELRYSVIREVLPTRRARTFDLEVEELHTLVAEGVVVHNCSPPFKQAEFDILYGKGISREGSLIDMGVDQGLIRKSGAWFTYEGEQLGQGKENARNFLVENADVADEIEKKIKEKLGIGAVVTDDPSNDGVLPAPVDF
Arbovirus inh repeat – recorded beside Arbovirus inh, whose call it bears; inhibition, %; measured here: 10K subset replicate screen; many hits read low in the repeat;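 first of two repeat runs on a subset; 0% = infected and 100% = uninfected wells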
* hit, by the source's call; ? = inconclusive; . = not tested or not shown. This is a subset, so the mix of outcomes need not match the whole.

SMILES | Arbovirus inh | Mtb betalactam | Mtb growth | YopH inh | RecA intein inh | others
O=C(Nc1ccc(Cl)cc1)c1cc(S(=O)(=O)N2CCOCC2)cs1 | 4.7 | 4.0 | -1.5% | -3.5 | 2.8
O=C(NC1CCCC1)C(c1ccncc1)N(C(=O)c1ccco1)c1ccc(Cl)cc1 (stereo not given) | . | 9.3 | . | . | -0.3
COc1ccccc1NS(=O)(=O)c1ccc(O)c(C(=O)OCC(=O)Nc2ccccc2F)c1 | 7.2 | 7.4 | 3.1% | . | -3.1
COc1cccc(/C=N/NC(=O)c2cccc3ccccc23)c1OC | . | 2.8 | . | . | 2.2
CC1Cc2ccccc2N1C(=S)NC(=O)C1(C)CC1(Cl)Cl (stereo not given) | -3.2 | 87.5 | ? | . | 3.6
C/C(=N\NC(=O)c1ccc(F)cc1)c1cccc(NC(=O)c2ccco2)c1 | -7.3 | -0.4 | -3.4% | -33.3 | -4.0
Cc1ccc(S(=O)(=O)c2cc(OC(=O)c3ccco3)ccc2OC(=O)c2ccco2)cc1 | -5.2 | -0.4 | -2.6% | -20.5 | -0.6
Cc1nc(-c2ccc(Cl)cc2)sc1C1(C)CC(c2cccnc2)=NO1 (stereo not given) | . | 0.3 | 15.0% | . | 9.1
O=C1CC(c2nc3ccccc3[nH]2)CN1c1ccccc1F (stereo not given) | -5.6 | -5.3 | 0.1% | -22.4 | -0.3 | Arbovirus inh repeat=-1.7
O=C1c2cccc3cc([N+](=O)[O-])cc(c23)C(=O)N1c1ccccc1O | -16.3 | 53.5 | 6.5% | . | -56.9
COc1ccccc1N(/N=C1\Sc2ccccc2C1=O)C(C)=O | . | 31.4 | 10.2% | . | 15.1
CCOc1ccc(Nc2nc(N)c([N+](=O)[O-])c(N3CCN(CC)CC3)n2)cc1 | . | -4.1 | . | . | 0.6
CC1CCCC(C)N1C(=O)CSc1nnc(COc2ccccc2)n1-c1ccccc1 (stereo not given) | 7.9 | -1.2 | -4.9% | -2.7 | -5.4
CN1C(=O)/C(=C/c2ccccc2Cl)Sc2ccc(C(=O)N3CCCC3)cc21 | . | 81.0 | . | . | 14.7
CCCCNC(=O)NC1C(NC(=O)NCCCC)N(C)C(=O)N1C (stereo not given) | -5.5 | 5.2 | -0.2% | -1.5 | 3.7
O=C(COc1ccccc1)N1CCCC1 | 16.6 | 0.8 | -5.1% | . | -4.3
COc1ccc(NC(=O)CSc2nnc(CNC(=O)c3ccco3)o2)c(OC)c1 | 8.6 | 1.6 | -5.7% | -2.4 | -1.7
Cc1cc(NC(=O)CSc2nc3c(c(=O)n2CCc2ccccc2)SC(C)C3)no1 (stereo not given) | -1.6 | 0.5 | 5.2% | -42.6 | -0.1 | Arbovirus inh repeat=-4.1
CCOc1ccc2[nH]c3c(NCCC(C)C)ncnc3c2c1 | . | 0.1 | . | . | 0.6
Cn1c(=O)c2c(nc(SCC(=O)O)n2Cc2cc3c(cc2Cl)OCO3)n(C)c1=O | -0.1 | -2.9 | -7.7% | -21.5 | -1.9
O=C(NCc1ccco1)C1(c2ccc(Cl)cc2)CCCC1 | -1.0 | 33.7 | 3.7% | -11.1 | .
c1csc(-c2nc3ccccn3c2NC2CCCCC2)c1 | 11.6 | 1.0 | 4.9% | . | -8.0
Cc1ccc(N(CC(=O)NC2CCCCC2)C(=O)CCCC(=O)Nc2ccccn2)c(C)c1 | . | -1.3 | . | . | 2.3
CCc1ccccc1Cn1c(=O)oc2cccnc21 | . | -14.0 | -6.4% | . | -0.7
COc1ccccc1/C=C1\CCC(C2CCCC2)C1=O (stereo not given) | . | -13.1 | . | . | 1.7
C=CCn1c(SCC(=O)Nc2cccnc2Cl)nnc1-c1ccc(C(C)(C)C)cc1 | 4.7 | -1.1 | 3.6% | -24.1 | 2.2
O=C1CC(c2ccco2)CC(O)=C1C=NCCN1CCN(C2CC(=O)N(c3ccccc3)C2=O)CC1 (stereo not given) | 4.3 | . | -4.8% | -12.9 | 0.6
CN1CCN(S(=O)(=O)c2ccc(Br)s2)CC1 | -2.1 | ? | -5.1% | -29.9 | -2.3
N#C/C(=N\Nc1ccc(F)cc1)C(=N)N1CCCCC1 | -5.1 | 0.8 | -7.1% | -18.2 | 4.3
CC(Nc1nc(-c2ccc3c(c2)NC(=O)CO3)cs1)c1ccccc1 (stereo not given) | -18.4 | 73.2 | 17.9% | . | 4.7
CC(=O)[C@@]12O[C@@H]1C[C@H]1[C@@H]3CC[C@H]4C[C@@H](O)CC[C@]4(C)[C@H]3CC[C@@]12C | . | 1.9 | . | . | 0.3
O=C(Nc1cccc2c1CCCC2)C1CCN(C(=O)NC2CCCCC2)CC1 | -2.3 | -3.7 | -9.8% | -37.3 | -2.0
O=C(c1ccccc1Cl)N1CCC(N2CCC(C(=O)N3CCCC3)CC2)CC1 | . | 0.9 | . | . | -0.5
CCOC(=O)c1c(C)c(C(=O)NCC2CCCO2)c(C)n1CC (stereo not given) | 11.7 | -9.9 | -6.8% | -39.1 | -2.0
COc1ccc(C(=O)C2CCCN(C(=O)c3cccc(Cn4cccn4)c3)C2)cc1F (stereo not given) | . | -8.1 | . | . | 0.9
COc1cccc(OC)c1C(=O)NNC(=O)c1cccc(COc2ccc3c(c2)CCC3)c1 | -25.8 | -3.1 | . | -29.8 | 6.6
CC(=O)c1ccc(OC(=O)c2ccc(Br)o2)cc1 | -14.0 | 7.0 | -1.6% | -55.1 | 17.4
CC1CCCN(S(=O)(=O)c2ccccc2[N+](=O)[O-])C1 (stereo not given) | 1.3 | 1.4 | -0.9% | 9.4 | -2.6
Cc1cccc(N2C(=O)c3cccc(Oc4ccc(Cl)cc4)c3C2=O)c1 | -2.6 | -2.3 | 6.1% | -15.7 | -0.2
CC1=C(C)CC(C(=O)Nc2ccc(C(N)=O)cc2)C(C(=O)O)C1 (stereo not given) | 6.8 | 4.9 | -7.1% | 0.2 | 5.3
Cc1ccc(NC(=O)C2CCCN2S(=O)(=O)c2ccc(F)cc2)c(C)c1 (stereo not given) | 2.7 | -6.0 | -0.1% | -39.9 | 0.8
NNC(=O)c1[nH]c2ccc(Br)cc2c1-c1ccccc1 | . | 58.1 | ? | . | 6.1
Cc1ccc(C(=O)NCCC(=O)N2CCOCC2)cc1 | . | 1.1 | . | . | 7.2
COC(=O)c1ccc(NC(=O)c2c(C(=O)Nc3ccccc3)sc3nc(C)cc(=O)n23)cc1 | 7.2 | -6.7 | -4.0% | . | -0.6
CCCCN(C(=O)NC(=O)Nc1ccccc1OCC)S(C)(=O)=O | 11.9 | -7.4 | -7.7% | -24.5 | -0.2
O=C(Cn1ncc2c3ccccc3n(Cc3ccccc3F)c2c1=O)NCCN1CCOCC1 | . | 9.0 | . | . | -1.7
Cc1noc(C)c1C(=O)N1CCCC(Nc2ccc(C(C)C)cc2)C1 (stereo not given) | . | -3.8 | . | . | 0.8
Cc1ccc(NC(=O)C(=O)NCCN2CCN(C(=O)C(c3ccccc3)c3ccccc3)CC2)cc1 | -9.3 | -18.1 | -1.4% | -23.0 | 0.1
CCC(Oc1ccccc1)C(=O)Nc1nc2ccccc2[nH]1 (stereo not given) | -8.9 | 58.4 | -9.1% | -84.6 | 3.5
O=C(CSc1nc2ccccc2c(=O)[nH]1)Nc1ccc(C(=O)O)cc1 | 11.3 | 4.8 | 2.8% | . | -3.5
Remaining list, next part:
SMILES | Arbovirus inh | Mtb betalactam | Mtb growth | YopH inh | RecA intein inh | others
O=C(CNC(=O)c1ccccc1)c1ccccc1 | . | 2.4 | . | . | -2.5
Cc1cccc(C(=O)N2CCN(c3ncnc4c3cnn4-c3ccccc3)CC2)c1 | 0.7 | 66.8 | 19.3% | -10.2 | 2.3
O=S(=O)(O)c1cccc2cccc(Nc3ccccc3)c12 | . | -9.4 | . | . | -17.5
CN1CCN(C(=O)/C(=C/c2cn(S(=O)(=O)N(C)C)c3ccccc23)NC(=O)c2ccccc2F)CC1 | . | -7.4 | . | . | -4.7
COc1ccc(/C=N/Nc2ccccn2)cc1OC | . | 63.2 | -9.0% | . | -2.6
Cn1cnnc1SCc1ccc(C#N)cc1 | 8.6 | 5.7 | -0.1% | -35.9 | 4.3
Cc1nn2c(N3CCN(CCO)CC3)c3c(nc2c1-c1ccccc1)CCCC3 | . | -1.6 | -2.5% | . | 0.0
Cc1ccc(SCC(=O)OCC(=O)NCc2cccs2)cc1C | . | -1.2 | . | . | -5.6
C=CCn1c(C)nnc1SCC(=O)NC1CCCCC1 | . | -10.9 | . | . | -0.1
CC(=O)Oc1ccc(/C=N\NC(=O)c2cc3c(ccc4ccccc43)o2)cc1 | . | 96.3 | . | . | 2.9

4 compounds drawn at random from the list so far, as already listed:
SMILES | Arbovirus inh | Mtb betalactam | Mtb growth | YopH inh | RecA intein inh | others
CN1CCN(C(=O)/C(=C/c2cn(S(=O)(=O)N(C)C)c3ccccc23)NC(=O)c2ccccc2F)CC1 | . | -7.4 | . | . | -4.7
CC(=O)Oc1ccc(/C=N\NC(=O)c2cc3c(ccc4ccccc43)o2)cc1 | . | 96.3 | . | . | 2.9
Cc1cccc(C(=O)N2CCN(c3ncnc4c3cnn4-c3ccccc3)CC2)c1 | 0.7 | 66.8 | 19.3% | -10.2 | 2.3
Cc1ccc(SCC(=O)OCC(=O)NCc2cccs2)cc1C | . | -1.2 | . | . | -5.6

The results go on:
SMILES | Arbovirus inh | Mtb betalactam | Mtb growth | YopH inh | RecA intein inh | others
O=S(=O)(c1ccccc1)N1CCN(C(=S)NCCCN2CCOCC2)CC1 | 2.5 | -1.0 | -4.3% | . | 1.9
C/C(CCN1CCc2nc(-c3ccccc3)c(-c3ccccc3)cc2C1)=N\OC[C@@H](C)[C@H](OCc1ccccc1)C(C)C | -37.4 | -0.5 | 8.8% | -7.1 | 6.1
CCCN(CC(=O)Nc1ccccc1C)C(=O)c1ccc(C(=O)c2ccccc2)cc1 | . | -9.8 | . | . | -1.8
CCOC(=O)Nc1ccc(S(=O)(=O)N(C)C(C)C)cc1 | -3.6 | -8.5 | -0.4% | -2.7 | -2.9
CC(=NCC1CCCO1)c1c(O)n(-c2ccc(Cl)cc2)c(=O)[nH]c1=O (stereo not given) | 5.0 | -5.5 | -2.8% | 4.5 | 4.1
COc1ccc(-c2cnc(NCc3cc4c(cc3[N+](=O)[O-])OCO4)n2C)cc1 | -3.4 | 9.5 | 8.4% | -9.4 | -1.6
CCN(CC)C(=O)c1sc(NC(=O)c2cccs2)c(C#N)c1C | -5.5 | -10.1 | -0.8% | . | -1.8
Cc1nc(-c2ccccc2)[nH]c(=O)c1Oc1ccc(Cl)cc1Cl | . | -3.5 | -2.3% | . | 3.9
Cc1ccc(C(C)C)c(OCCNS(C)(=O)=O)c1 | 3.8 | -3.0 | 23.1% | -29.1 | -0.6
O=[N+]([O-])c1ccc(OCc2cnc(Cl)s2)c([N+](=O)[O-])c1 | -5.7 | 5.1 | 6.2% | . | 1.7

Ordered by count of non-hydrogen atoms (descending): six of the compounds above.
SMILES | Arbovirus inh | Mtb betalactam | Mtb growth | YopH inh | RecA intein inh | others
C/C(CCN1CCc2nc(-c3ccccc3)c(-c3ccccc3)cc2C1)=N\OC[C@@H](C)[C@H](OCc1ccccc1)C(C)C | -37.4 | -0.5 | 8.8% | -7.1 | 6.1
COc1ccc(-c2cnc(NCc3cc4c(cc3[N+](=O)[O-])OCO4)n2C)cc1 | -3.4 | 9.5 | 8.4% | -9.4 | -1.6
O=S(=O)(c1ccccc1)N1CCN(C(=S)NCCCN2CCOCC2)CC1 | 2.5 | -1.0 | -4.3% | . | 1.9
Cc1nc(-c2ccccc2)[nH]c(=O)c1Oc1ccc(Cl)cc1Cl | . | -3.5 | -2.3% | . | 3.9
CCOC(=O)Nc1ccc(S(=O)(=O)N(C)C(C)C)cc1 | -3.6 | -8.5 | -0.4% | -2.7 | -2.9
Cc1ccc(C(C)C)c(OCCNS(C)(=O)=O)c1 | 3.8 | -3.0 | 23.1% | -29.1 | -0.6

Additional entries follow:
SMILES | Arbovirus inh | Mtb betalactam | Mtb growth | YopH inh | RecA intein inh | others
COc1cc(-c2[nH]ncc2CN2CCSCC2)cc(OC)c1OC | . | -2.0 | -4.5% | . | -3.7
Cc1cnc(C(=O)OC(C)C(=O)NC2CCCc3ccccc32)cn1 (stereo not given) | . | -0.2 | . | . | 0.2
CC(C)OC(=O)N(C)c1ccc(C(O)(C(F)(F)F)C(F)(F)F)cc1 | 18.8 | -7.0 | -12.8% | -23.1 | 0.9
Cc1cccc(NC(=O)C2CCN(S(=O)(=O)c3c(C)[nH]c(=O)[nH]c3=O)CC2)c1 | 6.9 | 6.8 | -3.6% | 16.1 | 1.2
